# Screens: PubChem BioAssay, National Center for Advancing Translational Sciences (NCATS)
# SARS PLpro yeast: qHTS of Yeast-based Assay for SARS-CoV PLP; S. cerevisiae expressing SARS-CoV PLpro, growth rescue; control for the full effect not named in the record; Potency, µM (series often up to 32.9 µM), for the others: at the highest dose activity, positive = growth rescue; 330,000 tested, 0.19% active; AID 485353, 2010; active means well fitted rising curve with a large enough effect; inconclusive means small, poorly fitted or top-dose-only effect; inactive means no such curve, though single readings can be large or run the other way; further: 0% is about no effect; nearly all actives have a fitted effect of over 55% in size; growth read by luminescence after 48 h
# RE007 growth inh: qHTS Assay for Inhibitors of the HIV-1 protein Vpr; S. pombe RE007 Vpr strain, BacTiter-Glo ATP luminescence, 24 h; control for the full effect not named in the record; AID 651644, 2012; Potency, µM (highest dose often 92.2 µM), without a hit: at the top dose activity change, negative = less growth; 360,000 tested, 0.21% active; active = well fitted falling curve with a large enough effect; inconclusive = small, poorly fitted or top-dose-only effect; inactive = no such curve, though single readings can be large or run the other way;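 further: on the % scale 0 is the no-effect control and ±100 the full control effect; nearly all actives have a fitted effect of over 50% in size; the assay follows cell death caused by Vpr and the record does not say whether a fall means rescue or toxicity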
#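 Fission yeast strain RE007, carrying one chromosomally integrated HIV-1 vpr copy, was seeded at OD 0.01 in PMG+AL medium with 23 nL pinned compound. After 24 h at 30 °C and 99% humidity, viability was read by BacTiter-Glo luminescence.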
# NS1 function inh: qHTS Assay for Inhibitors of Influenza NS1 Protein Function. S. cerevisiae slowed by influenza A NS1, growth recovery by OD600. Potency, µM (series often up to 46.1 µM), for the others: at the top dose activity, positive = more growth. 270,000 tested, 0.4% active. AID 2326, 2010; active means well fitted rising curve with a large enough effect; inconclusive means small, poorly fitted or top-dose-only effect; inactive means no such curve, though single readings can be large or run the other way; further: nearly all actives have a fitted effect of over 50% in size
#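 A cell-based growth assay was used: compounds that relieve NS1-induced slow growth of budding yeast raise OD600. Assay medium was yeast nitrogen base with ammonium sulphate and -URA supplement, pH 6.0, with 2% galactose.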
# Lassa entry inh: qHTS for Inhibitors of binding or entry into cells for Lassa Virus | 300,000 tested, 1.2% active | Lassa virus pseudotype entry inhibition, cell reporter; control for the full effect not named in the record | Potency, µM (titrated, usually from 37.9 µM), for inactives: at the highest dose activity change, negative = inhibition, most hits filed as inhibitors; active means well fitted inhibition curve with a large enough effect; inconclusive means small, poorly fitted or top-dose-only effect, or effect the other way; inactive means flat fitted curve, though single readings scatter; tested in HEK293 cells; further: on the % scale 0 is the no-effect control and ±100 the full control effect; nearly all actives have a fitted effect of over 50% in size; luciferase read-out
# MARV entry inh: qHTS for inhibitors of binding or entry into cells for Marburg Virus | Marburg virus pseudotyped entry inhibition, cell reporter; control for the full effect not named in the record; about a third of the inactives were read at about 46 µM | Potency, µM (top dose mostly 37.8 µM), without a hit: top-dose activity change, negative = inhibition, actives largely listed as inhibitors | 300,000 tested, 1.8% active; active = well fitted inhibition curve with a large enough effect; inconclusive = small, poorly fitted or top-dose-only effect, or effect the other way; inactive = flat fitted curve, though single readings scatter; tested in HEK293 cells; about a fifth of its hits are not listed in these tables; further: on the % scale 0 is the no-effect control and ±100 the full control effect; luciferase read-out
# Cruzain noTriton: qHTS Assay for Promiscuous and Specific Inhibitors of Cruzain (without detergent); Cruzipain (Trypanosoma cruzi), P25779; purified cruzain, Z-FR-AMC fluorescence, no detergent; Potency, µM, for the others: max response, negative = inhibition, most hits filed as inhibitors; 200,000 tested, 2.3% active;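 further: plate controls were enzyme without inhibitor for no effect and buffer without enzyme for full effect; nearly all actives have a fitted effect of over 40% in size; top concentration of the series not given in the record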
# Target sequence (P25779 123-467 limits assumed): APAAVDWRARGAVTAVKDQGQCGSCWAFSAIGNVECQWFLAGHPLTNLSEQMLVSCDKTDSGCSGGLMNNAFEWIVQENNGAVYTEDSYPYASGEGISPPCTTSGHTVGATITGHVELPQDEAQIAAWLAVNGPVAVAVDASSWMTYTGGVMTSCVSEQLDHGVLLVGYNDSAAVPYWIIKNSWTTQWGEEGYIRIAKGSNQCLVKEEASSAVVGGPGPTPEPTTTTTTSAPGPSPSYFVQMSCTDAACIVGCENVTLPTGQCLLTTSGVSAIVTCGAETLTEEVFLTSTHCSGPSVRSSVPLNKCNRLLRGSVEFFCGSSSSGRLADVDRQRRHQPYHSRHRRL
#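 Detergent-free condition (0.00005% Triton X-100) in acetate buffer pH 5.5 with DTT. 1.5 nM enzyme and compound were pre-mixed 15 min, then 2 uM Z-FR-AMC substrate added; reaction progress from fluorescence change between first and third reads (60 s).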
# Cruzain Triton: qHTS Assay for Promiscuous and Specific Inhibitors of Cruzain (with detergent). Potency, µM, without a hit: max response, negative = inhibition, actives largely listed as inhibitors. AID 1478, 2009. Cruzipain (Trypanosoma cruzi), P25779. purified cruzain, Z-FR-AMC fluorescence, 0.01% Triton. 200,000 tested, 0.43% active;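 further: plate controls were neutral wells for no effect and buffer without enzyme for full effect; nearly all actives have a fitted effect of over 40% in size; top concentration of the series not given in the record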
#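 Compounds were screened in titration against cruzain (1.5 nM) with 0.01% Triton X-100 to counter colloidal aggregation. Activity was the AMC fluorescence increase over 60 s after adding 2 uM Z-FR-AMC at pH 5.5.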
# StopGo reporter: High Throughput Screening for Foot and Mouth Disease Virus Antivirals. human cells with a luciferase reporter of 2A StopGo recoding; control for the full effect not named in the record. Potency, µM (highest dose often 57.9 µM), for inactives: at the highest dose signal change, negative = less light. 410,000 tested, 1.2% active; active = well fitted falling curve with a large enough effect; inconclusive = small, poorly fitted or top-dose-only effect; inactive = no such curve, though single readings can be large or run the other way; tested in HEK293T cells; further: on the % scale 0 is the no-effect control and ±100 the full control effect; nearly all actives have a fitted effect of over 45% in size; luciferase light after 4 h
# An asterisk follows results filed as active; ? = inconclusive; nt = not tested or not shown; & = joins results of further samples; [ ] = dose if it differs, or a comment. Unless noted, the call rests on the fitted dose curve; in most records, active means well fitted curve in the direction sought with a large enough effect; inconclusive means small, poorly fitted or top-dose-only effect, or another doubt; inactive means no such curve, though single readings can be large; an effect the other way counts as inactive or inconclusive. Potency means the concentration at half of the fitted maximal effect.
SMILES,SARS PLpro yeast,RE007 growth inh,NS1 function inh,Lassa entry inh,MARV entry inh,Cruzain noTriton,Cruzain Triton,StopGo reporter
O=CN1CCN(C2CC(=O)N(c3ccc4c(c3)OCO4)C2=O)CC1 (configuration not stated),-22%,-20%,-1%,8%,15%,-5%,3.6%,-15%
Fc1ccc(-c2nnc(Cc3nnc(-c4ccc(F)cc4)o3)o2)cc1,7%,10%,4%,3%,8%,-2%,-0.3%,-8%
CC(=O)Nc1cc(O)cc(O)c1,0%,7%,-6%,5%,-2%[46.1 µM],nt,nt,-8%
COc1ccccc1NC(=O)Cc1nn(C)c(=O)c2ccccc12,-1%,10%,-46%,0%,?,-11%,1.4%,?
Cc1cn2c(=O)cc(COC(=O)c3cccc(NC(=O)COc4ccccc4C)c3)nc2s1,nt,nt,nt,10%[46.1 µM],nt,28%,0.8%,-16%
Oc1ccc(/C=N/Nc2ncc(Br)cn2)c(O)c1,?,-3%,-4%,?,?,1%,-10%,10%
c1ccc2cc(OCCN3CCCC3)ccc2c1,-7%,12%,-11%,10%,-8%,1%,0.8%,nt
Cc1cc([N+](=O)[O-])cc(/C=N\NC(=O)C2COc3ccccc3O2)c1O (configuration not stated),0%,?,-74%,-11%,?,nt,nt,7%
COC(=O)c1sccc1S(=O)(=O)N(CC(=O)Nc1c(C)cccc1C)c1ccc(C)c(C)c1,nt,nt,nt,?,nt,6%,-3.9%,4%
Cc1ccc(NC(=O)CSc2nc3ccccc3nc2Cc2ccccc2F)cc1F,nt,nt,nt,8%[46.1 µM],5%[46.1 µM],-18%,-1.3%,-3%
Cc1cc(C)nc(CCNC(=O)c2cc(COc3c(C)cccc3C)on2)n1,8%,2%,-16%,?,?,nt,nt,5%
COc1ccc(NC(=O)CN(C)C(=O)c2cccc3ccccc23)cc1,-3%,-4%,nt,-2%,?,nt,nt,20%
COC(=O)c1ccc(CNC(=O)C23CC4CC(CC(C4)C2)C3)cc1,-19%,53%,-25%,-20%,-13%[46.1 µM],nt,nt,-22%
COc1ccc(C(=O)NC(=S)N2CCOCC2)cc1OC,-1%,15%,3%,nt,nt,nt,nt,-5%
CC(=O)Nc1ccc(S(=O)(=O)N(C)CC(=O)OC(C)C(=O)NC2CCCC2)cc1 (configuration not stated),-1%,8%,5%,5%,?,nt,nt,5%
O=C(O)C1CSC(c2ccccc2Cl)N1C(=O)c1ccc(Cl)cc1 (configuration not stated),10%,-10%,-1%,-2%,?,22%,-4.1%,-23%
CC(=O)N1CCC(c2c[nH]c3ccccc23)CC1,0%,-4%,2%,5%,4%[14.2 µM],nt,nt,-2%
CCOC(=O)C1=C(SCC)c2cc3c(n2C1=O)CCCC3,-7%,-20%,-9%,1%,10%[46.1 µM],?,-10%,?
COc1ccc(Cl)cc1NS(=O)(=O)c1cccc(C(=O)NCC2CCCO2)c1 (configuration not stated),1%,5%,6%,-16%,?,nt,nt,10%
Cc1cc(C)cc(NC(=O)c2cc(C)nn2C)c1,-15%,-21%,12%,12%,1%,-1%,-1.4%,32%[activator]
O=C1c2cccc3cccc(c23)C(=O)N1CCCN(C(=O)c1cccs1)c1cccc(F)c1,14%,0%,9%,0%,-27%,?,-6.4%,-29%
Cc1ccc2c(c1)NCCO2,6%,10%,11%,2%,1%,-8%,2.4%,2%
CCN(Cc1ccncc1)Cc1ccc(OC)cc1OC,6%,-14%,5%,nt,nt,nt,nt,-8%
OC(COc1ccccc1)CN1CCN(c2cccc(Cl)c2)CC1 (configuration not stated),nt,-8%,nt,15%,14%,nt,nt,-16%
COC(=O)c1c(NC(=O)c2cc(=O)c3c(C)cc(C)cc3o2)sc2c1CCCC2,nt,nt,nt,16%[46.1 µM],9%[46.1 µM],-1%,-0.5%,-20%
Cc1ccc(CNC(=O)C2CN(S(C)(=O)=O)c3cc(Cl)ccc3O2)cc1 (configuration not stated),-1%,3%,-11%,?,?,nt,nt,-6%
COc1cccc(C(=O)OCc2ccccc2C#N)c1O,-10%,-5%,-13%,11%,?,-6%,-2.0%,33%[activator]
Oc1cc2c(cc1CN1CCN(c3ccc(F)cc3)CC1)OCO2,1%,-26%,-4%,9%,0%[46.1 µM],nt,nt,-27%
Cc1cccc(S(=O)Cc2ccc(C(=O)NC3CCCCCC3)o2)c1 (configuration not stated),nt,nt,nt,-20%[46.1 µM],nt,7%,-2.6%,-3%
CCOc1ccc2nnnn2n1,-1%,10%,0%,18%,-9%,15%,-2.4%,1%
COc1ccc(/C=C2\SC(=S)N(CCC(=O)NCCCn3ccnc3)C2=O)cc1,4%,-17%,2%,nt,nt,nt,nt,39%[activator]
CC(=O)c1ccc(Nc2cc(C)nc3ccccc23)cc1,-5%,-12%,nt,?,2.8µM*,nt,nt,8%
COc1ccc(C(c2c(C)[nH]n(C(N)=S)c2=O)C(C#N)C#N)cc1 (configuration not stated),-11%,-18%,14%,0%,-18%,-17%,2.4%,25µM*
CCc1nnc(NC(=O)c2ccc(Br)c(S(=O)(=O)N3CCOCC3)c2)s1,-1%,-12%,-4%,-22%,3%[46.1 µM],nt,nt,-29%
Cc1ccc(NC(=O)CSc2nc3c(c(=O)[nH]2)CCC3)c(C)c1,-3%,-2%,0%,6%[46.1 µM],8%[46.1 µM],nt,nt,5%
COc1cc2cc(CN(CCc3ccccc3C)C(=S)NCCCN(C)C)c(=O)[nH]c2cc1OC,-21%,4%,7%,?,?,-8%,-6.0%,0%
Cc1nonc1CC(=O)N1CCCC(C(=O)c2cccc(C(F)(F)F)c2)C1 (configuration not stated),0%,13%,-1%,4%[46.1 µM],-4%[46.1 µM],nt,nt,-1%
Cc1ccc(Cl)cc1N1CCN(CC(O)COCc2ccco2)CC1 (configuration not stated),-2%,5%,-3%,-19%,?,0%,-1.7%,-13%
Cc1cccc2c(C(=O)N3CCCCC3)cc(-c3ccccc3)nc12,-9%,-22%,-7%,-25%,?,nt,nt,-17%
C=CCOc1c(Br)cc(CNc2nccs2)cc1OC,12%,-6%,-10%,-9%,6%,3%,-12%,-14%
CCCCn1c(O)c(C=NC2CC3CCC2(C)C3(C)C)c(=O)[nH]c1=O (configuration not stated),1%,14%,-46%,-8%,?,3%,-9.8%,9%
CSc1ccc(C2c3c(oc4ccc(F)cc4c3=O)C(=O)N2c2ccc(C)cn2)cc1 (configuration not stated),nt,nt,nt,-8%[46.1 µM],9%[46.1 µM],0%,-0.6%,20%
CN(C(=O)c1cccc(C#N)c1)c1nnc(-c2ccccn2)s1,0%,4%,-1%,?,?,-7%,-4.9%,48%[activator]
COc1ccc(/C=N/N(C)C2=NCCN2)c(OC)c1OC,1%,7%,-2%,nt,nt,nt,nt,-14%
COc1cc(-c2nc(Cn3nnc(C(=O)Nc4cccc(Cl)c4)c3C)c(C)o2)cc(OC)c1OC,nt,nt,nt,?,-5%[46.1 µM],8%,-3.4%,?
COc1cccc(C(C(=O)NC2CCCC2)N(Cc2ccccc2OC)C(=O)c2ccco2)c1 (configuration not stated),19%,-4%,-3%,?,-21%,-8%,-0.2%,4%
COc1ccc(NC(=S)NCC2CCCO2)c(OC)c1 (configuration not stated),-2%,-4%,25%,9%,-2%,-8%,4.6%,14%
CCOC(=O)CN1N=C(/C=C/c2ccc(OC)cc2)CCC1=O,-6%,-4%,-3%,-4%,?,-3%,-9.2%,-17%
O=c1c2c3c(sc2ncn1/N=C/c1ccco1)CCCC3,-3%,8%,-14%,?,30%,6%,-8.2%,38%[activator]
CC1CCN(C(=O)Cn2c(=O)n(CC3CCC(C(=O)NC(C)C)CC3)c(=O)c3sccc32)CC1 (configuration not stated),nt,nt,nt,-17%[46.1 µM],nt,-1%,-0.3%,-8%
Cc1c([N+](=O)[O-])c(C(=O)Sc2ccc(Br)cc2)nn1C,-6%,?,-60%,-2%,5%[14.2 µM],nt,nt,-4%
O=C(CCC(=O)Nc1ccccc1Cl)NNC(=O)Nc1cccc([N+](=O)[O-])c1,-2%,1%,-7%,4%,27%,nt,nt,-2%
O=C(O)COc1ccccc1C1C2C(=O)N(c3ccccc3)C(=O)C2ON1c1ccccc1 (configuration not stated),6%,-5%,-1%,1%,-2%,?,-1.5%,20%
C[C@H](N)C(=O)OCc1ccc([N+](=O)[O-])cc1,-1%,10%,1%,nt,nt,nt,nt,7%
O=C(Cn1cc(C(=O)c2cccs2)c2ccccc21)NC1CCCCC1,-44%,1%,20%,-8%,3%,-2%,-2.1%,-15%
O=S(=O)(c1cc(Br)c(Br)s1)N1CCN(c2ccccc2)CC1,nt,nt,nt,10%[46.1 µM],nt,-4%,0.0%,-16%
COc1ccccc1CNC(=O)COC(=O)CCC(=O)c1cccs1,0%,-5%,8%,1%,?,nt,nt,6%
Cc1cc(/C=C2\SC(=S)N(C)C2=O)c(C)n1-c1cccc(O)c1,-2%,12%,0%,nt,nt,nt,nt,1.3µM*
CN(C)CCNc1oc(-c2ccccc2F)nc1C#N,7%,-11%,-6%,nt,nt,-3%,-13%,-11%
Cc1ccc(NC(=O)C(=O)c2ccc(C)cc2)cc1,2%,-12%,-3%,25%,?,nt,nt,32%[activator]
# (cont.)
SMILES,SARS PLpro yeast,RE007 growth inh,NS1 function inh,Lassa entry inh,MARV entry inh,Cruzain noTriton,Cruzain Triton,StopGo reporter
N#CC(=C=[N-])c1nc2ccccc2nc1-[n+]1ccccc1,0%&-4%,6%&-18%,-2%&0%,10%,13%,-9%,-3.6%,?
Cc1cc(C)n(C(=O)CCCCCCCCC(=O)n2nc(C)cc2C)n1,7%,4%,7%,15%,0%,18%,-1.0%,14%
CCOC(=O)C1=C(c2ccccc2)NC(=O)NC1c1ccc(O)c(Cl)c1 (configuration not stated),7%,-8%,4%,nt,nt,nt,nt,8.9µM*
COc1ccc(S(=O)(=O)N(C)CC(=O)Nc2ccc(F)cc2)cc1,nt,8%,-7%,-1%,-7%,-6%,1.3%,nt
